# Sa growth 42C – blocks Staphylococcus aureus growth; AID 720641; S. aureus RN4220 growth, OD600, 20 h, 42 °C; active compounds read low; 170,000 compounds, 0.53% hits; relative growth, % (no concentration beside the values);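 active means growth at 42 °C up to 50% and 20 or more points under that at 30 °C, or under 10% at both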;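 further: 300 nL library stock went into each well; scaled to the means of positive and negative controls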
# HCMV NEC inh – disrupts HCMV UL50-UL53 complex binding | 190,000 compounds, 0.15% hits | inhibition, % (no concentration beside the values) | HTRF UL50-UL53 interaction, normalized percent inhibition;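 active means both replicates at 50% or more, plus weaker picks with an unusually low signal ratio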;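 further: stock transfer was 100 nL into about 20 µL; 0% = negative control wells and 100% = wells with untagged competitor protein; inactives centre near -12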
# GIV-Gai inh – GIV-Galpha-i interaction inhibition | P08753 | Galpha-i3/FITC-GIV peptide fluorescence polarization, 90 min; active compounds read low; scaled: aluminum fluoride 0%, vehicle 100% | percent of control (FP), % (no concentration beside the values) | 210,000 compounds, 0.42% hits | AID 1224905;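 active means replicate mean at 85% of control or lower, very high polarization wells dropped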;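 further: wells of about 15 µL received 100 nL stock; the first replicate is given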
# Target sequence (P08753 whole entry, looked up): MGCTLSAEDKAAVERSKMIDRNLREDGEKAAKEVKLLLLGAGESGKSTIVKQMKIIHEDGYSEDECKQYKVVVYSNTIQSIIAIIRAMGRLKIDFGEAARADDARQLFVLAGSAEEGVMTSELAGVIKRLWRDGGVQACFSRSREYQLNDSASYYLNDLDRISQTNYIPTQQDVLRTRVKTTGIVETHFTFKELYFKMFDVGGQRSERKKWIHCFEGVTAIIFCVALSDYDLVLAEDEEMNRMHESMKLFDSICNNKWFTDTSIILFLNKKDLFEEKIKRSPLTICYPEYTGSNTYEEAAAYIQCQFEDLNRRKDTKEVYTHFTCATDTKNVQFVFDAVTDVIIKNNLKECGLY
# Sa growth 42C second temp – recorded beside Sa growth 42C, whose call it bears; relative growth, %; measured here: growth at 30 °C;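 optical density after 20 h as mean of two plates; 100% = untreated growth and lower means inhibition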
# The depositor's hits bear a star; · = not tested or not shown; & = joins results of further samples.
SMILES,Sa growth 42C,Sa growth 42C second temp,HCMV NEC inh,GIV-Gai inh
O=C(C1COc2ccccc2O1)N1CCc2ccccc21 (configuration not stated),118.1,89.3,-35.9,·
CCOc1ccccc1NC(=O)c1sc2nc3c(cc2c1N)CN(Cc1ccccc1)CC3,112.3,83.7,-18.8,107.3
COc1ccccc1C(=O)COC(=O)C1CCN(S(=O)(=O)c2cccs2)CC1,76.5,98.6,3.7,·
COCC(C)Nc1nc2c(s1)CCCC2 (configuration not stated),90.2,83.1,2.3,·
O=C(NC1CCCc2ccccc21)c1cc(C2CC2)[nH]n1 (configuration not stated),100.9,78.6,-31.8,104.2
O=C(O)c1ccc(N=C2NC(=O)C(CO)(CO)S2)cc1,114.6,88.5,·,99.5
O=C(NCC1CCCO1)C1CCCCC1 (configuration not stated),100.6,93.8,-5.4,·
CCc1ccc(NC(=O)c2sc3nc(C)c(Cl)c(C)c3c2NC(=O)c2ccccc2OC)cc1,90.7,105.2,-19.8,109.1
CCOC(=O)c1cc(-c2ccc(F)cc2)n(CCC(=O)NCc2ccccc2OC)c1C,97.2,75.3,·,98.1
O=C1c2ccccc2C2CC(c3cc(Cl)ccc3Cl)=NN12 (configuration not stated),101.6,95.8,-0.5,104.3
NC(=O)c1ccccc1NC(=O)Cc1csc(NC(=O)c2ccccc2)n1,·,·,-33.0,179.3
S=c1nc(N2CCCCC2)[nH]c(N2CCCCC2)n1,113.3,72.5,-5.1,100.9
Cc1cc(C)nc(-n2nc(C)c3c2N(Cc2ccccc2F)C(=O)CC3c2ccc(Cl)cc2)n1 (configuration not stated),91.0,91.0,14.5,97.5
CC(=O)N(C(C)=O)c1cc(C)c(C#N)c2nc3ccccc3n12,88.4,85.5,-36.9,97.9
CCOC(=O)c1cnc(SCc2nc(-c3ccc(C)cc3)oc2C)nc1N,90.7,94.1,-23.3,109.3
CCC(C)NC(=O)c1ccc(NC(=O)N2CCCCc3ccccc32)cc1 (configuration not stated),·,·,-14.9,101.6
COc1ccccc1CNC(=O)C1(C)Cn2c(cc3ccsc32)C(=O)N1c1cccc(C)c1C (configuration not stated),·,·,-34.5,107.7
COc1cc(OC)cc(-n2c(=O)c3sccc3n(Cc3ccc(F)cc3)c2=O)c1,84.8,106.1,17.1,101.7
O=C(Nc1ccc(Br)cc1)c1ccc(Nc2ccnc(-c3ccc(F)cc3)n2)cc1,·,·,-4.3,97.8
Cc1ccc(NC(=O)NC(=O)CN2CCC(C)CC2)c(C)c1,100.4,95.6,-6.7,·
O=C1C2ON(c3ccccc3)C(c3cccs3)C2C(=O)N1c1ccccc1 (configuration not stated),98.4,94.0,9.1,105.5
O=C(Cc1c(F)cccc1Cl)OCC(=O)c1ccccc1,92.9,83.7,-29.4,·
COc1ccc(NC(=O)c2cnn3c(C(F)(F)F)cc(-c4cc(OC)c(OC)c(OC)c4)nc23)c(OC)c1,·,·,4.6,100.6
Cc1ccnc(NS(=O)(=O)c2ccc(NC(=O)/C=C/c3ccccc3)cc2)n1,100.0,79.7,·,118.0
COc1ccccc1NC(=O)CN(Cc1ccco1)C(=O)c1cccs1,73.7,88.6,-15.8,·

# Brought forward from above: 4 compounds, then new ones.
SMILES,Sa growth 42C,Sa growth 42C second temp,HCMV NEC inh,GIV-Gai inh
O=C(Cc1c(F)cccc1Cl)OCC(=O)c1ccccc1,92.9,83.7,-29.4,·
COc1ccc(NC(=O)c2cnn3c(C(F)(F)F)cc(-c4cc(OC)c(OC)c(OC)c4)nc23)c(OC)c1,·,·,4.6,100.6
Cc1ccnc(NS(=O)(=O)c2ccc(NC(=O)/C=C/c3ccccc3)cc2)n1,100.0,79.7,·,118.0
COc1ccccc1NC(=O)CN(Cc1ccco1)C(=O)c1cccs1,73.7,88.6,-15.8,·
C=CCC1c2cccc(C(=O)O)c2C(=O)N1c1cccc(C)c1 (configuration not stated),152.1,88.4,-20.1,95.5
CCOC(=O)CSc1nc(-c2ccccc2)cc(C(F)(F)F)c1C#N,105.2,93.0,-6.7,103.8
COc1ccc2c(c1)c(C#N)c1n2CCN=C1N(C)C,100.3,85.0,·,112.8
O=C(CC1Sc2ncnn2C1=O)Nc1ccccc1 (configuration not stated),91.6,93.7,3.1,99.8
COc1ccc(-c2cc(C(=O)N3CCN(c4ccccc4)CC3)no2)cc1,102.5,105.6,10.8,110.3
Cc1ccc(Nc2ncnc3sc(C)c(S(=O)(=O)N4CCCCC4)c23)cc1F,·,·,-22.2,105.7
COc1cc(OC)c(-c2c(C#N)c(N)n3c(nc4ccccc43)c2C#N)cc1OC,·,·,-15.3,106.5
Cc1cc(-c2nc3ncccc3o2)ccc1NC(=O)COc1ccccc1C,113.2,83.7,·,101.5
CCOC(=O)C1C(=O)C=C(c2cccs2)CC1c1ccc(F)cc1 (configuration not stated),88.5,86.1,·,102.8
CC1=C(c2ccc(C)cc2)S(=O)(=O)N(Cc2ccc(C(=O)NCc3ccccc3F)cc2)C1=O,94.2,90.5,·,102.1
O=C(c1ccc(CSc2nc3ccncc3n2Cc2cccc(F)c2)cc1)N1CCCCC1,109.6,70.7,-15.5,101.8
CCCCC(=O)NC(c1ccc(N(C)C)cc1)c1ccc2cccnc2c1O (configuration not stated),11.2,9.1,-8.7,96.9&109.3
Cn1c(SCC(=O)N(c2ccccc2)C2CCCCC2)nnc1-c1ccco1,97.1,80.2,-13.1,101.8
COCc1c(C(=O)OCc2cc(Cl)c3c(c2)OCO3)oc2ccccc12,94.6,98.2,-6.3,·
CCOc1ccccc1NC(=O)C1CCN(S(=O)(=O)c2ccc3c(c2)CC(C)N3C(C)=O)CC1 (configuration not stated),90.6,81.6,-1.6,98.5&106.2
CC(C)c1ccc(NC(=O)c2ccc3c(c2)NC(=O)C2CCCCN32)cc1 (configuration not stated),·,·,-11.0,104.4
Cc1ccccc1-n1nc(C)c2c1CC(C)(C)CC2=O,92.9,75.2,-12.1,102.1
CC(C)C(NC(=O)c1ccc(F)cc1)C(=O)OCc1ccccc1 (configuration not stated),101.8,97.1,10.6,·
Cc1ccc(NC(=O)N2CCN(c3ccc(Cl)c(Cl)c3)CC2)cc1,103.4,94.7,3.7,108.7
CCOc1ccc2nc(NCCNC(=O)Nc3ccc(SC)cc3)c(C#N)cc2c1,93.7,104.7,5.6,103.9
N#Cc1ccccc1Cn1c(=O)n(Cc2ccc(C(=O)NCc3ccco3)cc2)c(=O)c2sccc21,100.1,91.1,·,101.0
c1ccc2[nH]c(-c3nc4ccccc4s3)nc2c1,99.0,71.9,·,138.3
C=CCN1C(=O)C(Cc2c[nH]c3ccccc23)NC1=S (configuration not stated),109.3,83.5,-4.5,·
CCCNS(=O)(=O)c1cc(Cl)ccc1OC,106.5,91.5,-9.3,109.0
OCc1nc2ccccc2n1CC(O)Cn1ccc2ccccc21 (configuration not stated),97.2,54.4,0.4,101.1

# Random excerpt: 4 entries already listed.
SMILES,Sa growth 42C,Sa growth 42C second temp,HCMV NEC inh,GIV-Gai inh
CCCNS(=O)(=O)c1cc(Cl)ccc1OC,106.5,91.5,-9.3,109.0
N#Cc1ccccc1Cn1c(=O)n(Cc2ccc(C(=O)NCc3ccco3)cc2)c(=O)c2sccc21,100.1,91.1,·,101.0
COCc1c(C(=O)OCc2cc(Cl)c3c(c2)OCO3)oc2ccccc12,94.6,98.2,-6.3,·
C=CCN1C(=O)C(Cc2c[nH]c3ccccc23)NC1=S (configuration not stated),109.3,83.5,-4.5,·

# 2 entries from above, with bars between the fields:
mol | Sa growth 42C | Sa growth 42C second temp | HCMV NEC inh | GIV-Gai inh
O=C(CC1Sc2ncnn2C1=O)Nc1ccccc1 (configuration not stated) | 91.6 | 93.7 | 3.1 | 99.8
Cc1ccc(NC(=O)N2CCN(c3ccc(Cl)c(Cl)c3)CC2)cc1 | 103.4 | 94.7 | 3.7 | 108.7

# (cont.)
SMILES,Sa growth 42C,Sa growth 42C second temp,HCMV NEC inh,GIV-Gai inh
c1ccc(C2C/C(=N\n3cnnc3)c3ccccc3O2)cc1 (configuration not stated),91.1,97.6,13.0,·
O=C1COc2ccc(C(=O)CSc3nnc(-c4ccoc4)c(-c4ccoc4)n3)cc2N1,86.4,50.6,-49.8,100.3
OCCn1nnnc1NCc1ccc(Br)cc1,92.5,99.4,-22.2,98.6
COc1ccc(C)cc1Nc1n[nH]nc1C(=O)NCc1ccc(Cl)cc1,·,·,-25.4,106.8
O=C(c1ccc(Cl)cc1)C(Oc1ccc(Cl)cc1)n1cncn1 (configuration not stated),84.0,78.0,2.7,103.7
COC(=O)NCc1cc2cc(Cl)ccc2[nH]1,116.4,108.8,-8.4,105.5
O=C1CCC(Sc2ccccc2C(=O)O)N1 (configuration not stated),·,·,-5.1,103.7
CCOc1ccc(CCNS(=O)(=O)c2c(C)nc3sc(CC)nn3c2=O)cc1OCC,·,·,-15.5,103.3
CCOc1ccc(Nc2nnc(-n3nc(C)cc3C)c3ccccc23)cc1,105.2,105.8,3.9,106.9
Nc1nonc1NC(=O)CSc1ccc(Cl)cc1,84.4,64.1,-2.2,·
CCN1C(=O)/C(=C\c2ccccc2)SC1=S,97.9,91.6,-10.7,109.9
O=C(O)c1ccccc1N=Cc1ccco1,88.7,86.1,-37.9,·
O=C(COc1ccccc1-c1nnc(-c2ccccc2)o1)NCCc1ccc(Cl)cc1,·,·,3.4,106.4
CCN(CC)S(=O)(=O)c1ccc2c(c1)N(CC(=O)NC(C)C)C(=O)CS2,·,·,4.2,108.1
Cn1nc(Oc2ccc3ccc(=O)oc3c2)c(=O)n(C)c1=O,102.4,99.7,-10.5,·
Nc1ncnc2nc(SCc3nc4ccccc4n3Cc3ccccc3)[nH]c12,94.2,77.1,-12.1,·
COc1ccc2c(c1)C=C(C(=O)O)CO2,·,·,-63.1,99.8
COc1cc(/C=C2\Sc3ccccc3C2=O)cc(Br)c1O,·,·,-40.3,195.8
S=c1oc2ccccc2n1CN1CCN(c2ccccn2)CC1,106.9,76.3,-25.9,·
N#CSc1cc(SC#N)c(N)nc1N,74.6,44.4,29.5&4.2,16.0*
c1ccc(CCNc2ncnc3scc(-c4ccccc4)c23)cc1,120.0,93.1,6.4,109.2
Cc1cc(NC(=O)CCNS(=O)(=O)c2ccc3c(c2)oc(=O)n3C)ccc1Br,109.5,84.9,-37.9,106.5
CC1(C)NC(=O)N(CN2C(=O)NC(C)(C)C2=O)C1=O,90.9,81.7,-28.7,99.5
CC(C)(C)c1cc2c(c(C(C)(C)C)c1)OCN(CC(=O)O)C2,102.6,67.9,·,109.8
COC(=O)C1=CN(C(C)C)C=C(C(=O)OC)C1c1cccc(Br)c1,99.7,91.2,-24.6,101.2

# Further records follow:
SMILES,Sa growth 42C,Sa growth 42C second temp,HCMV NEC inh,GIV-Gai inh
COC(=O)c1ccc(N2C(=O)C(C)SC2c2ccccc2)cc1 (configuration not stated),80.0,79.6,-7.3,·
COc1ccc(Cl)cc1NC(=O)c1[nH]c(C)c(S(=O)(=O)N2CCCC2)c1C,·,·,-6.2,109.4
CC1=CC(=C2C(=O)NC(=S)NC2=O)C=C(C(F)(F)F)N1CCN(C)C,100.3,93.1,-77.9,99.6
CCc1c(C)sc2[nH]c(=S)n(CC)c(=O)c12,112.1,88.0,15.0,·
COc1ccc(/C=C2\SC(=O)N(CCNC(=O)C3CC(=O)N(c4ccc5c(c4)OCCO5)C3)C2=O)cc1OC (configuration not stated),56.6,89.6,-76.5,·
Cc1ccc(-c2nn(CC(=O)NC3CCCC3)c3c2cnc2ccccc23)cc1,110.8,100.9,·,104.8
CC(NC(=O)CSc1nc(N)cc(=O)[nH]1)c1ccccc1 (configuration not stated),118.8,88.4,·,95.2
OCc1ccc(OCCOCCOc2ccc(Cl)c3cccnc23)cc1,99.0,100.7,-43.1,106.7
COc1cc(-c2nnc(COC(=O)[C@@H](NS(=O)(=O)c3ccccc3)C(C)C)o2)cc(OC)c1OC,95.5,97.0,-13.0,·
CN1CCN(C(=O)c2ccc3c(c2)NC(=O)/C(=C/c2ccccc2)S3)CC1,105.2,56.4,-63.6,105.3
O=C1C2C3c4ccccc4C(c4ccccc43)C2C(=O)N1CN1CCOCC1 (configuration not stated),110.0,98.7,-27.5,106.8
CCOc1ccc(-c2cccc(NC(=O)c3c(OC)cccc3OC)c2)nn1,93.2,86.2,-22.3,101.2
CCc1nc(-c2cc(S(=O)(=O)N3CCN(c4ccccc4F)CC3)ccc2OC)no1,101.6,89.0,-6.8,98.0
CC(=O)Nc1cccc(C(=O)OCC(=O)N2c3ccccc3CC2C)c1 (configuration not stated),98.4,87.1,-34.6,·
O=C(NC1CCCCCC1)c1ccc2c(c1)sc1nc(-c3ccccc3)cn12,149.2,77.5,·,102.3
CCOc1ccc2nc(N3CCC(C(=O)Nc4ccc(OC)c(OC)c4)CC3)sc2c1,·,·,-25.1,97.1
O=C1C2C3C=CC(C3)C2C(=O)N1c1ncn[nH]1 (configuration not stated),92.2,68.8,4.4,98.9
OC(c1ccccc1)C1CN(Cc2ccccc2)CCC1(O)c1ccccc1 (configuration not stated),97.1,96.8,9.2,105.2

# Structures listed so far printed as active in GIV-Gai inh:
Structure	Sa growth 42C	Sa growth 42C second temp	GIV-Gai inh
N#CSc1cc(SC#N)c(N)nc1N	74.6	44.4	16.0*

# Screening data deposited in PubChem BioAssay by ICCB-Longwood Screening Facility, Harvard Medical School.
